GIV-Gai inh: GIV-Galpha-i interaction inhibition; P08753; percent of control (FP), % (no concentration beside the values); Galpha-i3/FITC-GIV peptide fluorescence polarization, 90 min; hits give low values; scaled: aluminum fluoride 0%, vehicle 100%; 0.42% of 210,000 active;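 active means replicate mean at 85% of control or lower, very high polarization wells dropped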;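 further: wells of about 15 µL received 100 nL stock; the first replicate is given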
Target sequence (P08753 whole entry, looked up): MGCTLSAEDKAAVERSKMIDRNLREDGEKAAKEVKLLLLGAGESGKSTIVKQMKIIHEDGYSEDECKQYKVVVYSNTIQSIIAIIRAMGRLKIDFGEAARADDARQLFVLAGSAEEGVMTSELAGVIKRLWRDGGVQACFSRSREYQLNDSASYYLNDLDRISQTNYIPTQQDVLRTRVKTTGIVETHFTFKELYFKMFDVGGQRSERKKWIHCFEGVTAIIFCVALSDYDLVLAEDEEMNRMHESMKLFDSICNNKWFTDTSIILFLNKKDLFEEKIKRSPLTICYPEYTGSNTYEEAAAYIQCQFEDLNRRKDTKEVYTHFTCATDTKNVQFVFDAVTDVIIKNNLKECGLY
HCMV NEC inh: inhibitors of HCMV UL50-UL53 nuclear egress complex interaction. inhibition, % (concentration not given with the values). HTRF UL50-UL53 interaction, normalized percent inhibition. AID 1918969. 0.15% of 190,000 active;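 active means both replicates at 50% or more, plus weaker picks with an unusually low signal ratio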;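 further: stock transfer was 100 nL into about 20 µL; 0% = negative control wells and 100% = wells with untagged competitor protein; inactives centre near -12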
Sa growth inh: S. aureus growth inhibition; S. aureus RN4220 growth, OD600, 20 h, 42 °C; hits give low values; relative growth, % (no concentration beside the values); 0.53% of 170,000 active;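 active means growth at 42 °C up to 50% and 20 or more points under that at 30 °C, or under 10% at both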;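 further: 300 nL library stock went into each well; scaled to the means of positive and negative controls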
Sa growth inh second temp: recorded beside Sa growth inh, whose call it bears; relative growth, %; measured here: growth at 30 °C;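 optical density after 20 h as mean of two plates; 100% = untreated growth and lower means inhibition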
* marks the source's active call; other numbers are inactive results; . = not tested or not shown; & = joins results of further samples.

No. | mol | GIV-Gai inh | HCMV NEC inh
1 | Cc1cc(NC(=O)Nc2ccc(Cl)cc2)n(C(C)(C)C)n1 | 107 | -27
2 | CCCN1CCN(c2nnc(-n3cccc3CN3CCN(c4ccccn4)CC3)s2)CC1 | 104 | -6
3 | C=CCn1c(SCC(=O)Nc2sc3c(c2C(=O)OC)CCC3)nnc1-c1cccnc1 | . | -19
4 | COc1ccc(CCNC(=O)c2cnn(-c3ccc(F)cc3)c2C2CCN(C(=O)OC(C)(C)C)CC2)c(OC)c1 | 104 | .
5 | OC(COc1ccc(Cl)cc1)Cn1c(Cc2ccccc2)nc2ccccc21 (configuration not stated) | 106 | 5
6 | O=c1[nH]cnc2c1nnn2Cc1ccccc1 | 96 | -15
7 | CNC(=O)NC(=O)CSc1ncnc2sc(-c3ccccc3)cc12 | 104 | -18
8 | C[C@H](NC(=O)c1ccco1)C(=O)Nc1ccc2oc3ccccc3c2c1 | . | -10
9 | CN(C)c1ccc(/C=C/c2ccccc2)cc1 | 101 | -171
10 | CSc1ncc(C(=O)Nc2cccc(F)c2)cn1 | 100 | -8
11 | O=C(O)CC(=O)Nc1ccccc1 | 97 | -12
12 | Cc1cc(C(=O)CSc2nnc(CN(c3ccc(F)cc3)S(C)(=O)=O)n2C)c(C)n1C1CC1 | 109 | -22
13 | Cn1cnnc1SCC(=O)Nc1ccc(Cl)cc1C(F)(F)F | . | 27
14 | OCn1cnc2ccccc21 | 105 | -37
15 | S=C(NCC(c1cccnc1)N1CCOCC1)Nc1ccccc1 (configuration not stated) | 97 | .

No. | Sa growth inh | Sa growth inh second temp
1 | 86 | 80
2 | . | .
3 | 100 | 97
4 | 82 | 85
5 | . | .
6 | 91 | 85
7 | 97 | 94
8 | 91 | 96
9 | 111 | 92
10 | 84 | 58
11 | . | .
12 | . | .
13 | 91 | 100
14 | 101 | 82
15 | 105 | 97

Continuation:
No. | mol | GIV-Gai inh | HCMV NEC inh
16 | Cc1cc(OCc2nc(CC(=O)Nc3nnc(CC(C)C)s3)cs2)ccc1Cl | 115 | -22
17 | Nc1noc2c1C(C1CC=CCC1)C1=C2CCCC1=O (configuration not stated) | 100 | -18
18 | COC(=O)c1ccc(-n2c(C)cc(C(=O)CC#N)c2C)cc1 | . | -30
19 | Cc1csc(NC(=O)COc2ccccc2-c2nc(C)no2)n1 | 99 | -18
20 | COc1ccc(CNC(=O)CCc2nc3cccnc3n2Cc2ccc(OC)cc2)cc1 | 103 | -5
21 | Cc1cccc(Cn2cc(S(=O)(=O)c3ccccc3)c(=O)c3cc(F)c(N4CCOCC4)cc32)c1 | 103 | .
22 | CC(=O)Oc1ccc(-n2c(C)cc(/C=C3\C(=O)NC(=O)N(c4ccccc4)C3=O)c2C)cc1 | 118 | -22
23 | CCOC(=O)C1=C(C)N=c2s/c(=C\c3cc([N+](=O)[O-])ccc3N3CCOCC3)c(=O)n2C1c1cccc(OC)c1 (configuration not stated) | 90 | -21
24 | Brc1ccc(N=C(c2ccccc2)c2ccncc2)cc1 | . | -2
25 | O=C(NCc1ccccc1)c1cccn1-c1nnc(N2CCCC2)s1 | 100 | .
26 | CCC(C)NS(=O)(=O)c1ccc2[nH]c3c(c2c1)CCCC3 (configuration not stated) | 97 | .
27 | Cc1ccc(S(=O)(=O)C2(S(=O)(=O)c3ccc(C)cc3)CCCC2)cc1 | 98 | -7
28 | COc1ccc(-c2noc(CNC(=O)C34CC5CC(CC(C5)C3)C4)n2)cc1 | 97 | -8
29 | CCOc1ccccc1C(=O)Nc1c(O)c2ccccc2oc1=O | 106 | -5
30 | O=C(c1ccc2c(c1)N(Cc1ccccc1)C(=O)c1ccccc1S2(=O)=O)N1CCCCC1 | 100 | .

No. | Sa growth inh | Sa growth inh second temp
16 | . | .
17 | 96 | 99
18 | 111 | 82
19 | . | .
20 | 102 | 84
21 | 101 | 85
22 | . | .
23 | . | .
24 | 77 | 57
25 | 105 | 91
26 | 89 | 67
27 | 106 | 99
28 | 81 | 69
29 | 115 | 98
30 | 94 | 90

(listing goes on)
No. | mol | GIV-Gai inh | HCMV NEC inh
31 | Cn1c(N)c(C(=O)CN2CCN(S(=O)(=O)c3ccccc3C(F)(F)F)CC2)c(=O)n(C)c1=O | . | -15
32 | Cc1cc(C)n(-c2nc3ccccc3nc2N2CCN(C(=O)c3ccccc3Br)CC2)n1 | 100 | -12
33 | O=C1Cc2ccccc2C(=O)N1Cc1ccccn1 | . | -22
34 | Cc1nn(CCCC(=O)NCc2ccccc2)c(=O)c2cc3sccc3n12 | 99 | -13
35 | N#Cc1ccc(OCC(=O)N2CCN(c3ccc(O)cc3)CC2)cc1 | . | -14
36 | O=S(=O)(c1ccc(Br)s1)N1CCN(c2ccccc2)CC1 | 99 | -3
37 | COCCN1Cc2cccc(C(=O)NC3CCCC3)c2C1=O | 101 | .
38 | COc1ccc(NC(=O)C2=CC(c3ccc4c(c3)OCO4)=NS(=O)(=O)N2C)cc1 | 106 | -11
39 | O=C(Cn1c(=O)oc2ccccc21)NCCc1ccco1 | 103 | 5
40 | Cc1ccc(C)c(OCC(O)Cn2c(C3CC(=O)N(Cc4ccccc4)C3)nc3ccccc32)c1 (configuration not stated) | 106 | -2
41 | O=S(=O)(c1cccc(Cl)c1)n1c(/C=C/c2ccccc2Cl)nc2ccccc21 | 103 | .
42 | O=C(NCCC1=CCCCC1)C1CCN(c2nc3ccccc3o2)CC1 | 103 | -19
43 | CS(=O)(=O)c1ccc(-c2cccc(NC(=O)c3ccc4c(c3)OCO4)c2)nn1 | 106 | -25
44 | COC(=O)c1c(NC(=O)c2nc(SCc3cccc(C)c3)ncc2Cl)sc2c1CCCC2 | 108 | 19
45 | CCCCNC(=O)N1CCN(C(c2ccccc2)c2ccccc2)CC1 | 108 | -11

No. | Sa growth inh | Sa growth inh second temp
31 | 101 | 92
32 | 101 | 87
33 | 118 | 95
34 | 100 | 85
35 | 85 | 93
36 | 110 | 93
37 | 74 | 73
38 | 122 | 91
39 | 88 | 95
40 | . | .
41 | 61 | 8
42 | 111 | 88
43 | 117 | 95
44 | 96 | 87
45 | 102 | 95

More structures.
No. | mol | GIV-Gai inh | HCMV NEC inh
46 | CCc1nn(CC(=O)Nc2cccc(C)c2C)c(=O)c2cc3sccc3n12 | 101 | -17
47 | CN(C)c1ccc(CN2CCCC2)cc1 | 106 | -20
48 | COc1cccc(NC(=O)N2CCN(C(=O)c3nsc4ccccc34)CC2)c1 | 104&101 | -12&-3
49 | CCSc1nc(=O)n(Cc2cccnc2)c2c1CCC2 | 99 | -26
50 | Cc1ccc(C(=O)c2oc3ccccc3c2N)cc1 | 101 | -25
51 | CC1=NN(c2ccccc2)C(=O)/C1=C\c1ccc(Oc2ccc([N+](=O)[O-])cc2[N+](=O)[O-])cc1 | 97 | 54*
52 | O=C(c1cc2ccc3cccnc3c2[nH]1)N1CCN(Cc2ccccc2)CC1 | 101 | -25
53 | COc1ccc(S(=O)(=O)c2c(Nc3ccc(C)cc3)sc(C(=O)c3ccc(C)cc3)c2N)cc1 | 105 | .
54 | O=C(COc1ccc(-n2cnnn2)cc1)N1CCCc2ccccc21 | . | -16
55 | N#Cc1ccc(C#CCOC(=O)c2cccs2)cc1 | 99 | -11
56 | CCCCn1c(NCCO)nc2ccccc21 | 101 | -8
57 | CCn1cc(CCC(=O)NC2CCCC(C)C2C)c2ccccc21 (configuration not stated) | 103 | .
58 | Cn1ccnc1SCc1csc(Nc2ccccc2)n1 | . | -23
59 | COc1ccc(C2CC(=O)c3cnc4c(-c5ccc(F)cc5)c(C)nn4c3C2)cc1 (configuration not stated) | 96 | -20
60 | Cc1cccc(-n2ccnc2SCC(=O)Nc2cccc3ccccc23)c1C | 97 | .

No. | Sa growth inh | Sa growth inh second temp
46 | 131 | 96
47 | 100 | 79
48 | 101 | 89
49 | 85 | 84
50 | . | .
51 | . | .
52 | 79 | 32
53 | 124 | 109
54 | 84 | 96
55 | 87 | 90
56 | 96 | 82
57 | 113 | 95
58 | 118 | 88
59 | . | .
60 | 97 | 78

Part of the list above in order of formula weight, low to high:
No. | mol | GIV-Gai inh | HCMV NEC inh
52 | O=C(c1cc2ccc3cccnc3c2[nH]1)N1CCN(Cc2ccccc2)CC1 | 101 | -25
60 | Cc1cccc(-n2ccnc2SCC(=O)Nc2cccc3ccccc23)c1C | 97 | .
48 | COc1cccc(NC(=O)N2CCN(C(=O)c3nsc4ccccc34)CC2)c1 | 104&101 | -12&-3

No. | Sa growth inh | Sa growth inh second temp
52 | 79 | 32
60 | 97 | 78
48 | 101 | 89

Going on with the list.
No. | mol | GIV-Gai inh | HCMV NEC inh
61 | CNS(=O)(=O)c1c(I)ccc2ccccc12 | 107 | -62
62 | O=C(Nc1ccncc1)OCCc1ccccn1 | 95 | 13
63 | O=C(OCc1ccccc1)C1=NNC2C(=O)N(c3ccccc3)C(=O)C12 (configuration not stated) | 96 | .
64 | Cn1c(C(=O)OC(C(=O)NCc2ccccc2)c2ccccc2)cc2sccc21 (configuration not stated) | 100 | -10
65 | CCC(C)NC(=O)CSc1nc2cc3c(cc2c(=O)n1CCCC(=O)NCCc1ccc(OC)c(OC)c1)OCO3 (configuration not stated) | 98 | .
66 | CC1Cn2cc(C(=O)NCc3ccccc3)c(=O)c3c(Cl)ccc(c32)O1 (configuration not stated) | 102 | .
67 | CC(C)(C)c1nc(Sc2ccc(C(F)(F)F)cn2)n[nH]1 | 102 | 13
68 | CC(=O)NC1=NN(C(C)=O)C(c2ccccc2)S1 (configuration not stated) | . | -11
69 | COC(=O)C(C#N)C(c1cccnc1)c1c(C)[nH][nH]c1=O (configuration not stated) | 102 | -9
70 | COc1cccc(CN(C)C(=O)CNC(N)=O)c1OC | . | -9
71 | CC(=O)N1CCc2cc(S(=O)(=O)Nc3cc(C)ccc3C)ccc21 | 105 | -27
72 | Cc1nn(C)c2c1c(C(F)(F)F)cc(=O)n2CC(=O)NC(C)(C)C | 104 | .
73 | CCNc1cc(N2CCN(C3CCCCC3)CC2)c2noc3c2c1C(=O)c1ccccc1-3 | 164 | -47
74 | Cc1ccc(CN2C(=O)N/C(=C\c3cn(CC(=O)N4CCOCC4)c4ccccc34)C2=O)cc1 | 104 | .
75 | Cc1ccc(Cl)cc1N1CCN(C(=O)Cn2nc(C)c3sc4ccccc4c3c2=O)CC1 | 101 | -3

No. | Sa growth inh | Sa growth inh second temp
61 | 97 | 88
62 | 68 | 91
63 | 93 | 89
64 | 112 | 72
65 | 102 | 90
66 | 92 | 88
67 | 102 | 97
68 | 117 | 87
69 | 100 | 97
70 | 92 | 91
71 | 90 | 100
72 | 93 | 90
73 | 96 | 86
74 | 105 | 79
75 | 114 | 94

Four entries already listed, sorted by the number in GIV-Gai inh, low to high:
| cpd | mol | GIV-Gai inh | Sa growth inh second temp |
| --- | --- | --- | --- |
| 62 | O=C(Nc1ccncc1)OCCc1ccccn1 | 95 | 91 |
| 20 | COc1ccc(CNC(=O)CCc2nc3cccnc3n2Cc2ccc(OC)cc2)cc1 | 103 | 84 |
| 53 | COc1ccc(S(=O)(=O)c2c(Nc3ccc(C)cc3)sc(C(=O)c3ccc(C)cc3)c2N)cc1 | 105 | 109 |
| 44 | COC(=O)c1c(NC(=O)c2nc(SCc3cccc(C)c3)ncc2Cl)sc2c1CCCC2 | 108 | 87 |

Given with tabs: entries from further up
nr	compound	GIV-Gai inh	HCMV NEC inh	Sa growth inh	Sa growth inh second temp
71	CC(=O)N1CCc2cc(S(=O)(=O)Nc3cc(C)ccc3C)ccc21	105	-27	90	100
72	Cc1nn(C)c2c1c(C(F)(F)F)cc(=O)n2CC(=O)NC(C)(C)C	104	.	93	90
73	CCNc1cc(N2CCN(C3CCCCC3)CC2)c2noc3c2c1C(=O)c1ccccc1-3	164	-47	96	86
74	Cc1ccc(CN2C(=O)N/C(=C\c3cn(CC(=O)N4CCOCC4)c4ccccc34)C2=O)cc1	104	.	105	79

Further records:
No. | mol | GIV-Gai inh | HCMV NEC inh
76 | COc1ccc(N2C(=O)/C(=C/c3ccc(OCc4ccc(C(=O)O)cc4)cc3)NC2=S)cc1 | 101 | -54
77 | CCOC(=O)C1=C(C)Nc2ccccc2N=C1NC(=O)c1ccccc1C | . | -12
78 | Cc1cccc(C(=O)Nc2nnc(S(=O)(=O)N(C)Cc3ccco3)s2)c1 | 105 | -2
79 | CCCn1cc(S(=O)(=O)c2ccccc2)c(=O)c2cc(F)c(N3CCCC3)cc21 | 107 | .
80 | Cc1ccc(NC(=O)Cn2cc(C(=O)C3CC3)c3ccccc32)c(C)c1 | 99 | -4

No. | Sa growth inh | Sa growth inh second temp
76 | . | .
77 | 96 | 88
78 | 91 | 96
79 | 124 | 90
80 | 89 | 95

Assay outcomes deposited in PubChem BioAssay by ICCB-Longwood Screening Facility, Harvard Medical School.

Rows were taken by chance. Share with any hit: about 0.82%.
